gsp agonist: activates gsp, the McCune-Albright syndrome mutation. Potency, µM (top dose mostly 76.9 µM), without a hit: at the top dose activation (cAMP increase), actives largely listed as activators. gsp mutant cells, cAMP HTRF, 30 min; control for the full effect not named in the record. 340,000 tested, 0.13% active; active = well fitted activation curve with a large enough effect; inconclusive = small, poorly fitted or top-dose-only effect, or another doubt; inactive = no such curve, though single readings can be large or run the other way; cell line not stated here;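 note: phosphodiesterase inhibitor Ro 20-1724 added with compounds to block cAMP breakdown; potency is the fitted concentration of half-maximal effect; nearly all actives have a fitted effect of over 60% in size; about a fifth of the inactives were tested at one dose only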
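Cells in DMEM/10% FBS with G418 were pretreated with compounds in DMSO plus […] (300 uM stock) for 30 min at 37C. cAMP was measured by HTRF (cAMP-d2 plus anti-cAMP antibody-K) after 30 min at room temperature.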
D2 agonist: human D2 receptor agonism in beta-arrestin assay. P14416. DiscoveRx PathHunter D2 beta-arrestin, luminescence, 90 min; 100% = 57 uM dopamine signal. activation, % (no concentration beside the values). 360,000 tested, 0.084% active. AID 624465; in the data active = activation above about 40%; inconclusive = about 15% to 40%; inactive = below about 15%; note: compound concentration not given in the record; the text of the record calls up to 30% inactive
Target sequence (P14416 whole entry, looked up): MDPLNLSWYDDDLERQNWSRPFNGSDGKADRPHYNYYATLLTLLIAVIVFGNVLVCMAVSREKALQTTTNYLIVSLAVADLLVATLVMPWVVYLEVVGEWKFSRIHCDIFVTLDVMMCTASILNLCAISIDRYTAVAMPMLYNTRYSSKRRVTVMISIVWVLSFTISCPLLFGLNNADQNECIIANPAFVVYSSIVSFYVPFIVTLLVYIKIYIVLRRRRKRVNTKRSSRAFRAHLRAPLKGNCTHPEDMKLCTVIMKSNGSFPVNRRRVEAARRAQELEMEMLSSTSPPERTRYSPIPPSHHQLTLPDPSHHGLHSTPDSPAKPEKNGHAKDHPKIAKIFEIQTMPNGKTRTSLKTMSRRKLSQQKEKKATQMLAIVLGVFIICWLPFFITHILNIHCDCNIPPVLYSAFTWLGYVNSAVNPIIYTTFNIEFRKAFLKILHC
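DiscoveRx PathHunter D2 beta-arrestin cells (2,100/well) attached overnight, then compound-stimulated 90 min at 37 C in HBSS/10 mM HEPES/0.1% Tween-20 buffer; beta-galactosidase complementation read by luminescence after 1 h at ambient temperature. Dopamine 57 uM final (EC100) as control.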
Six1-Eya2 inh: Six1/Eya2 interaction inhibition; activity change, % (concentration not given with the values); Q15475+O00167; 360,000 tested, 0.56% active; AID 651725; AlphaScreen GST-Six1/His-Eya2 binding, biochemical; active compounds read low; control for the full effect not named in the record; in the data active = activity change below about -65%; inconclusive = about -30% to -65%; inactive = above about -30%; note: % is set by controls: 0 for no effect and ±100 for the full control effect
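Six1/Eya2 binding was read as AlphaScreen signal after compounds were pinned into GST-Six1 plus His-tagged Eya2 (5X stock 250/500 nM) in pH 8.0 Tris/NaCl/TCEP buffer, beads added, then incubated 1 h, 37 C, dark.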
CtBP-E1A inh: CtBP/E1A binding inhibition. activity change, % (test concentration not listed). 340,000 tested, 0.49% active. AlphaScreen GST-E1A/His-CtBP binding, 1536-well; active compounds read low; control for the full effect not named in the record. AID 651724; in the data active means activity change below about -65%; inconclusive means about -30% to -65%; inactive means above about -30%; note: % is set by controls: 0 for no effect and ±100 for the full control effect
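Protein mix (5X: 125 nM each GST-E1A, His-CtBP) was incubated with pinned compound 2 h at 37 deg C in dark, in 50 mM Tris pH 8.0 buffer with 300 mM NaCl. Glutathione donor and nickel acceptor beads followed; AlphaScreen signal read after 1 h.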
gsp antag: gsp mutant antagonism; gsp-mutant cells, cAMP HTRF, 30 min; control for the full effect not named in the record; Potency, µM (top dose mostly 76.9 µM), without a hit: at the highest dose activity change, negative = inhibition, hits mostly inhibitors; 340,000 tested, 0.4% active; AID 624288; active = falling curve of any shape with a large fitted effect; inconclusive = falling curve, mostly with a smaller effect; inactive = flat or rising curve; cell line not stated here;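 note: intracellular cAMP measured with PDE inhibitor Ro 20-1724 present during compound exposure; potency is the fitted concentration of half-maximal effect; % is set by controls: 0 for no effect and ±100 for the full control effect; nearly all actives have a fitted effect of over 65% in size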
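HTRF cAMP read-out (cAMP-d2 plus anti-cAMP antibody-K in lysis buffer, 30 min RT). Before lysis, cells are exposed to compounds with […] for 30 min at 37C in DPBS containing Ca/Mg, BSA and Tween 20.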
D2 PAM: positive allosteric modulators of human D2 dopamine receptor. P14416. DiscoveRx D2 beta-arrestin cells, luminescence, 90 min; 100% = 57 uM dopamine signal. potentiation, % (no concentration beside the values). 360,000 tested, 0.23% active. AID 624464; active = potentiation of 50% or more; inconclusive = 30% to 50%; inactive = 30% or less;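 note: compound concentration not given in the record; tested on top of an EC20 dose of dopamine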
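PathHunter beta-arrestin assay in DiscoveRx D2 cells. Compounds were added with an EC20 of dopamine (50 nM final) for 90 min at 37 deg C. Luminescence was read 1 h after detection reagent, with 57 uM dopamine as the EC100 control.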
* = called active by the depositor; u = inconclusive; x = not tested or not shown; [ ] = another dose, or the depositor's remark.

SMILES	gsp agonist	D2 agonist	Six1-Eya2 inh	CtBP-E1A inh	gsp antag	D2 PAM
O=C(O)c1ccc2c(c1)S(=O)(=O)N=C1CCCCCN12	-23%	-7.2	17	-4	12%	0
CC(=O)c1ccc(C(=O)N2CCCC(CCC(=O)N(C)CCc3ccccn3)C2)s1 (stereo not drawn)	-4%	-1.9	-11	4	-10%	-4
Cn1c(=O)c2c(n(Cc3ccccc3)c1=O)NC(=O)C2CC(=O)N1CCc2ccccc2C1 (stereo not drawn)	8%	-5.3	0	2	-9%	-15
COc1cccc(COc2ncnc3sccc23)c1	0%[15.4 µM]	0.4	53	5	-6%	-13
COc1ccccc1OCCNC(=O)C1CC(=O)N(Cc2ccc(C)cc2)C1 (stereo not drawn)	22%	-4.3	24	7	-10%	-22
CN(CC(=O)Nc1ccccc1Cl)C(=O)COC(=O)Cc1ccc(F)cc1	0%	-1.5	0	2	1%	11
O=[N+]([O-])c1cc(Cl)cc2c1nc(NCCO)c1ccccc12	-10%	-5.2	-8	u	13%	-10
O=C(Cc1cccs1)NCCSc1c(-c2ccc(Cl)cc2)[nH]c2ccccc12	-2%	-3.0	-1	0	-19%	-1
CC(=O)c1cccc(NS(=O)(=O)c2ccc3c(c2)N(C(C)=O)CCO3)c1	26%	-0.3	0	x	-2%	-11
CN(C(=O)c1ccc(NC(=O)C2CCN(C(=O)OC(C)(C)C)CC2)cc1)C1CCC1	-1%	-1.7	-2	3	-1%	-8
Cc1cc(=O)c(C(=O)OC(C)C(=O)NC(N)=O)nn1-c1ccc(Cl)cc1 (stereo not drawn)	15%[15.4 µM]	-0.6	12	-3	9%	0
CC(C)(C)C(=O)Nc1nc2ccc(S(C)(=O)=O)cc2s1	-10%[15.4 µM]	0.8	-1	13	1%	-5
CCCOc1ccc(C2C(C(=O)c3ccco3)=C(O)C(=O)N2CCCn2ccnc2)cc1 (stereo not drawn)	9%[15.4 µM]	1.1	13	-6	8%	-10
O=C(C(=O)N1CCN(c2ccc([N+](=O)[O-])cc2)CC1)c1cn(CC(=O)N2CCOCC2)c2ccccc12	-27%[15.4 µM]	-2.0	-12	-6	-4%	22
c1ccc(C2CC(c3cccs3)n3nnnc3N2)cc1 (stereo not drawn)	-7%	-1.1	-2	0	-1%	-9
O=C1NC(=O)C(=C2CCOC2=O)N1	11%	-5.5	3	1	x	-4
COc1ccc(C(=O)n2cnc3ccccc32)cc1	-5%	-2.0	4	7	8%	-1
COc1cccc(-c2ccc3c(N)c(C(=O)NC4CC4)sc3n2)c1	2%[15.4 µM]	2.1	-18	12	-43%	-5
C=CCN(CC=C)CCOc1cccc(Oc2ccccc2)c1	14%	5.8	5	x	4%	-11
CC/C(=N\NC(=O)CNC(=O)/C=C/c1ccco1)c1ccccc1	-28%	-3.6	-4	-1	5%	-22
O=C(NCC1CCCO1)C1CCCN(S(=O)(=O)c2cccc3nsnc23)C1 (stereo not drawn)	-24%	-7.6	-1	6	-10%	-5
COc1cc(C(=S)N2CCCC2)ccc1OCc1ccc(C)cc1	-4%	-0.3	-1	x	-14%	-6
COc1cccc(-c2nc(CS(=O)(=O)CC(=O)NCCCN3CCN(C)CC3)c(C)o2)c1	u	-2.3	5	2	19%	-17
OC[C@@H]1CN(Cc2cccs2)C[C@H](n2cnc3c(NC4CCC4)ncnc32)O1	x	-2.4	1	8	x	-1
Cn1c(SCc2nc(-c3ccc(Cl)cc3)no2)nnc1-c1cccs1	-17%	3.8	4	-8	-23%	-3
Cc1cc(C(=O)NNC(=S)NC(C)c2ccccc2)cs1 (stereo not drawn)	-14%	-5.3	0	-14	2%	-31
O=C(NCc1cccs1)c1ccc2sc([C@@H]3O[C@H](CO)[C@H](O)[C@H](O)[C@H]3O)nc2c1	x	-8.5	-2	5	x	-19
O=C(Nc1cccc(C(=O)N2CCOCC2)c1)c1ccccc1	-17%	-0.6	3	7	17%	8
CS(=O)(=O)Nc1ccc(C2=NN(S(C)(=O)=O)C(c3ccc4c(c3)OCO4)C2)cc1 (stereo not drawn)	-2%	-1.0	2	3	1%	-16
O=C(CN1C(=O)C2C3CCC(C3)C2C1=O)NCc1ccco1 (stereo not drawn)	-11%[15.4 µM]	-4.1	6	4	10%	-6
Cc1ccc(F)cc1C(=O)N1CCOCC1c1cc(C(=O)Nc2ccccc2)no1 (stereo not drawn)	x	0.2	-1	4	x	7
CC(C)c1ccc(/C=N/NC(=O)c2ccccn2)cc1	17%	1.3	-2	-19	-1%	-10
CCOC(=O)Cc1csc(CC(N)=O)n1	8%	-4.1	0	x	13%	-13
O=C(CSc1n[nH]c(=O)n1C1CC1)Nc1ccc(F)c(Cl)c1	23%	-2.4	-2	-1	-1%	-3
CCN(C(=O)COC(=O)c1nccnc1N)c1cccc2ccccc12	-1%[15.4 µM]	-2.8	-5	-2	7%	-4
Cc1sc(NC(=O)c2sc3nc4c(C)cccc4cc3c2N)c(C#N)c1C	u	2.8	-9	-25	1%	-23
Cn1c(=O)c2c(SCc3cccnc3)nc(C3CC3)nc2n(C)c1=O	2%	-6.4	0	-4	-2%	-1
COc1ccc(-c2noc(C3CCCN(C(=O)CCc4ccccc4)C3)n2)cc1 (stereo not drawn)	28%	-0.4	1	3	u	-5
CCC(=O)N1CCc2cc(S(=O)(=O)NCCC(=O)Nc3cc(C)cc(C)c3)ccc21	26%	-3.0	-10	-19	-10%	-17
COc1cccc(C(=O)NCc2cn3ccsc3n2)c1	-32%[inhibitor]	-3.5	1	-2	6%	-2
Cn1c(=O)[nH]c(=O)c2c1nc(CN1CCN(c3cccc(Cl)c3)CC1)n2CCN1CCOCC1	-18%	-3.5	6	7	3%	-32
O=C(CNCCO)Nc1ccc(F)c(Cl)c1	-8%[15.4 µM]	-6.7	-4	10	12%	5
CC(C)NC(=O)NC(=O)CSc1ncc(C(F)(F)F)cc1Cl	u	-2.9	-1	2	7%	-11
Cn1c(=O)[nH]c(NC2CCCCC2)c([N+](=O)[O-])c1=O	u	-0.6	3	-1	6%	5
CSCc1nnc(NC(=O)c2ccc(S(=O)(=O)N3CCCCC3C)cc2)o1 (stereo not drawn)	-18%[15.4 µM]	-3.6	-25	-13	6%	-4
CC(=O)Nc1ccc(NC(=O)C(C)OC(=O)c2cccs2)cc1 (stereo not drawn)	6%[15.4 µM]	-4.2	4	9	-2%	-23
CCCCOc1ccc(OCCNC(=O)C2CCCN2C(=O)Nc2ccccc2)cc1 (stereo not drawn)	1%	-1.7	-5	-3	-3%	-6
COc1ccccc1-c1ccc(=O)n(CC(=O)NC2CCc3ccccc32)n1 (stereo not drawn)	1%	-2.9	0	-1	-5%	-11

Not a retest: an excerpt of the list.
SMILES	gsp agonist	D2 agonist	Six1-Eya2 inh	CtBP-E1A inh	gsp antag	D2 PAM
O=C(CNCCO)Nc1ccc(F)c(Cl)c1	-8%[15.4 µM]	-6.7	-4	10	12%	5
CC(C)NC(=O)NC(=O)CSc1ncc(C(F)(F)F)cc1Cl	u	-2.9	-1	2	7%	-11
Cn1c(=O)[nH]c(NC2CCCCC2)c([N+](=O)[O-])c1=O	u	-0.6	3	-1	6%	5
CSCc1nnc(NC(=O)c2ccc(S(=O)(=O)N3CCCCC3C)cc2)o1 (stereo not drawn)	-18%[15.4 µM]	-3.6	-25	-13	6%	-4
CC(=O)Nc1ccc(NC(=O)C(C)OC(=O)c2cccs2)cc1 (stereo not drawn)	6%[15.4 µM]	-4.2	4	9	-2%	-23

Further entries
SMILES	gsp agonist	D2 agonist	Six1-Eya2 inh	CtBP-E1A inh	gsp antag	D2 PAM
CCCSc1nnc(-c2cnn(-c3ccccc3)c2-n2cccc2)n1C	-45%	-4.9	-7	2	-3%	0
COc1cccc(C2=NOC(C(=O)Nc3cc(OC)c(OC)c(OC)c3)C2)c1 (stereo not drawn)	-12%	3.6	-1	-8	-10%	2
COCCNS(=O)(=O)c1cccn1-c1ncc(C(F)(F)F)cc1Cl	u	2.6	6	3	9%	-1
O=c1c2[nH]c3cccc(Cl)c3c2ncn1Cc1ccco1	-14%[15.4 µM]	-0.4	-4	0	3%	-3
COc1ccc2cc(C(=O)C3CCCN(C(=O)CCc4cnn(C)c4)C3)ccc2c1 (stereo not drawn)	1%	1.9	1	2	-15%	-4
CCOc1ccc(C(=O)NCC(=O)OCC(=O)c2ccc3c(c2)-c2ccccc2C3)cc1	25%	-3.2	0	-8	-16%	-2
CC1CCN(CCC(=O)Nc2ccc3c(c2)CCC3)CC1	-24%	-0.3	1	5	1%	-32
CSc1cccc(NC(=O)c2c(Cl)cnn2C)c1	2%	-1.7	5	-3	8%	-5
CN(CC(=O)Nc1ccc(Cl)cc1)C(=O)c1cccc(S(=O)(=O)N2CCN(Cc3ccccc3)CC2)c1	-5%	-3.5	-8	-2	-29%	-14
COc1cc(CC(=O)OCC(=O)NCCc2ccc(S(N)(=O)=O)cc2)cc(OC)c1OC	19%	5.8	0	11	14%	-2
COCCCNC(=O)Cn1c(=O)n(Cc2ccccc2Cl)c(=O)c2cc(OC)c(OC)cc21	15%	3.8	0	-3	-3%	-14
CC(=O)NC(Cc1ccc(C)cc1)C(=O)NC1CCN(c2ncccc2[N+](=O)[O-])CC1 (stereo not drawn)	-22%	-3.8	2	-1	8%	-5
CSc1cc(-c2ccc(Cl)cc2)n(Cc2ccccc2)c(=O)c1C#N	-49%[inhibitor]	2.8	7	-3	3%	-11
CCOC(=O)c1c(C)sc(Sc2ccc(Cl)cc2[N+](=O)[O-])c1OC	-30%	1.3	u	u	-14%	-4
Cc1ccc2c(c1)N(CC(=O)NCCC1=CCCCC1)C(=O)c1cccnc1O2	0%	-4.6	4	-3	-2%	-10
Fc1ccc(-c2nnc(CSc3nnc(-c4ccc5c(c4)OCO5)o3)o2)cc1	6%	-0.6	1	12	-2%	-3
CCCCn1c(N)c(N(Cc2ccccc2)C(=O)COc2ccccc2F)c(=O)[nH]c1=O	25%	0.3	2	6	-1%	-5
CN(C(=O)c1cccc(NC(=O)Cc2ccccc2)c1)c1ccccc1	-17%	-0.9	1	8	-4%	1
CC(C)CN1CN(Cc2ccco2)CNC1=S	-7%	-4.4	-1	-3	24%	-9
CCOC(=O)CC1C(=O)NCCN1C(=O)c1sc2ccccc2c1Cl (stereo not drawn)	-13%	-2.0	1	7	-2%	-1
O=C(Nc1ccncc1)c1ccc(NS(=O)(=O)c2cccc(F)c2)cc1	-10%	-5.2	4	-4	-35%	21
COc1ccc(S(=O)(=O)Nc2cc(C)cc(C)n2)c2ccccc12	11%	1.8	-1	2	-1%	-2
COc1ccc(S(=O)(=O)Nc2cccc(S(=O)(=O)N(C)C)c2)cc1[N+](=O)[O-]	4%	-5.8	-19	-9	-4%	-12
